Screening results: PubChem, several laboratories
HNF4A DNA FP = change in binding of human HNF4 alpha to DNA; P41235; HNF4a-FITC DNA binding, fluorescence polarization, 1 h; activity change, % at 10 µM; 360,000 tested, 0.3% active; in the data active means activity change above about 30%, passing the limit was not always enough;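 further: controls were the assay level and a saturating level of protein; the project sought stronger binding though the title names inhibitors; some compounds called inactive have numbers as strong as hits; positive values seem to mean higher polarization but the record does not say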
Target sequence (P41235 whole entry, looked up): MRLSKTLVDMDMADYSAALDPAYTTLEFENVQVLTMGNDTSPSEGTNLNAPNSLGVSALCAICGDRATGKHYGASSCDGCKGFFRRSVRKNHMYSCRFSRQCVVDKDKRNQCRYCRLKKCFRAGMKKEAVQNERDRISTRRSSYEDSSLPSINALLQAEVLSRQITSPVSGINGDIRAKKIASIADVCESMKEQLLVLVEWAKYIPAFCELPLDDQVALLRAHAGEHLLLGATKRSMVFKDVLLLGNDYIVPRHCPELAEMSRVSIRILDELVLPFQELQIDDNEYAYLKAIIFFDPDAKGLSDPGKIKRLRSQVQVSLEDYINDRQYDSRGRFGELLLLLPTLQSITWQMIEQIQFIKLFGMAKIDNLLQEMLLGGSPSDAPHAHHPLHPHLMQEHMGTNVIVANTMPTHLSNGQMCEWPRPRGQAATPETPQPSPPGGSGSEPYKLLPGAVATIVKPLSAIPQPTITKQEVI
Vif TR-FRET = inhibitors of Vif binding to APOBEC3G peptide, primary screen, biochemical, TR-FRET, GST-Vif 1-94, biotin-A3G peptide, dose response retest (AID 1117319) | TR-FRET GST-Vif / biotin-A3G peptide binding; higher % means a stronger effect; test concentration not given here; strong numbers were not always called active | inhibition, %; hits with a dose series show IC50 in µM | 260,000 tested, 0.57% active;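 active means above the screen mean plus three standard deviations and confirmed in dose response; inconclusive means results disagree or hit not tested in dose response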;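 further: Vif residues 1-94 fused to GST binding biotinylated APOBEC3G peptide 110-148; 0% = full assay without inhibitor and 100% = GST in place of GST-Vif; retest series ran down from 100 µM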
RanGTP-Imp inh = disruptors of Ran-importin-beta complex formation – biochemical, FRET, CFP-Ran, YFP-importin-beta, homogeneous, primary screen; cell-free CFP-Ran/YFP-importin-beta FRET ratio; inhibition, % (test concentration not listed); 300,000 tested, 1.1% active;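 active means most replicates above 15%; inconclusive means exactly half above 15%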;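 further: 0% = DMSO wells and 100% = Ran loaded with GDP instead of GTP; wells of about 40 µL received 100 nL stock; the first replicate is given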
ALR inh = human ALR oxidase inhibition via reduced H2O2 | 290,000 tested, 3.8% active | P55789 | AID 485317 | purified ALR, DTT oxidation, H2O2 HRP-luminol luminescence | inhibition, % (no concentration beside the values);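 active means mean and each replicate at 75% or more; inconclusive means only one of the two met; inactive means neither met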;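 further: stock transfer was 7.5 nL into about 7.5 µL; 0% = neutral wells and 100% = wells with inactivated enzyme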
Target sequence (P55789 whole entry, looked up): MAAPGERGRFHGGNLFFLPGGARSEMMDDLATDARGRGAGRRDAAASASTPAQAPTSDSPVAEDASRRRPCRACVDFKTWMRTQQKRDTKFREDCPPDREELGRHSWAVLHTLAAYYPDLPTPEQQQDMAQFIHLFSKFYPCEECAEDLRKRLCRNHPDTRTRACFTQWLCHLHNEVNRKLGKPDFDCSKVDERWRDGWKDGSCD
LANA-H2A inh = blocks KSHV LANA binding to histone H2A/H2B; 320,000 tested, 0.6% active; cell-free LANA-H2A/H2B peptide, fluorescence polarization; AID 2629; inhibition, % (test concentration not listed); Q9QR71; in the data active means inhibition mostly above about 10%, no sharp cut-off; inactive means mostly below about 6.7%;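 further: stock transfer was 7.5 nL into about 10 µL; 0% = median of vehicle wells and 100% = median of positive control wells; one replicate is shown; the record names a cut of 25% in any replicate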
B2AR ag = agonists of human beta-2 adrenergic receptor inducing internalization; P07550; Am2.2-beta2AR cells, FAP receptor internalization, flow cytometry; reference of the scale not given here; response, % (test concentration not listed); 340,000 tested, 0.43% active; AID 504454;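 active means response above a set limit, near 3 SD of response in nonfluorescent compounds, cut at about 42% in these data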;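 further: stock transfer was 100 nL into about 11 µL; a reference agonist was the positive control; negative values mostly stem from fluorescent compounds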
Target sequence (P07550 whole entry, looked up): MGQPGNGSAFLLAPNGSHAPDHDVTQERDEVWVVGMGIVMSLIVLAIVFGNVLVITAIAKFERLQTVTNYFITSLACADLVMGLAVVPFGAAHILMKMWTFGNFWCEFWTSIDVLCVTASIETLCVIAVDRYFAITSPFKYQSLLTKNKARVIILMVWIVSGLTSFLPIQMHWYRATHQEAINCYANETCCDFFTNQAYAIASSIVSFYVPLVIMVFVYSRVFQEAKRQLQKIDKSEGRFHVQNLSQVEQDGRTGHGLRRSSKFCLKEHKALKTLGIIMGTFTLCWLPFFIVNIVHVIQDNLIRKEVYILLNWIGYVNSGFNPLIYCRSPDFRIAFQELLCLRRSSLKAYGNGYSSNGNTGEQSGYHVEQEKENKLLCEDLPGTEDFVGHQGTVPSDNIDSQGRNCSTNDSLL
Calb FLC = affects C. albicans growth with fluconazole | growth inhibition, % (test concentration not listed) | C. albicans CaCi-2 (fluconazole-resistant clinical isolate) + fluconazole, Alamar Blue growth, 48 h | 300,000 tested, 0.57% active | AID 1979;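 active means most replicates above 75%; inconclusive means exactly half above 75%; inactive means most below 75%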;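 further: all wells also contain fluconazole at 8 µg/ml as a sub-toxic cotreatment; 0% = median of DMSO wells and 100% = median of geldanamycin control wells; wells of about 8 µL received 7.5 nL stock; the first replicate is given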
The depositor's hits bear a star; ? = inconclusive; nt = no result given.

SMILES	HNF4A DNA FP	Vif TR-FRET	RanGTP-Imp inh	ALR inh	LANA-H2A inh	B2AR ag	Calb FLC
COc1ccc(C(=O)Nc2ccc(-c3ccc(NC(=O)c4ccc(OC)cc4)c(OC)c3)cc2OC)cc1	4.4	9.3%	-1.0	nt	3.6	2.0	-4.8
C/C=C/c1ccc(OCC(=O)OCC(=O)NC2CC2)c(OC)c1	-1.9	18.8%	nt	nt	nt	3.3	nt
CC(C)c1ccc(C(=O)N/N=C/c2cccc(Cl)c2Cl)cc1	-1.4	0.4%	-0.4	-4.5	2.1	3.8	-8.1
O=C(COC(=O)c1ccccn1)NC12CC3CC(CC(C3)C1)C2	-4.7	0.9%	-3.6	-34.9	0.2	4.1	-60.9
Cc1cccc(NC2=NC(C)(C)N=C(N)N2)c1C	0.8	-9.3%	-1.4	-0.2	5.3	-3.3	0.3
CCCCOc1ccc(C(=O)NCC(=O)N2CC=C(c3ccccc3)CC2)cc1	5.7	-7.7%	-0.1	-6.9	-0.2	-2.8	15.9
COc1ccc(Nc2nc(N)nc(CSc3nccn3C)n2)cc1	1.8	-0.2%	-2.3	-4.5	-2.9	0.2	6.1
CCOC(=O)C1CCN(C(=O)C(CCSC)NC(=O)c2ccccc2OC)CC1 (stereo not given)	-2.3	-4.3%	nt	1.1	nt	17.4	nt
CCOC(=O)[C@@H]1[C@H]2COc3cc(OC)ccc3[C@H]2N2C(=O)N(c3ccc(F)cc3)C(=O)[C@]12C	-1.5	nt	4.8	-17.1	-0.4	1.1	5.4
O=C(N/N=C/c1ccc([N+](=O)[O-])o1)c1ccc2c(c1)OCO2	2.9	12.8%	-2.1	-43.0	4.5	15.2	29.2
CC1CCc2sc(C(=O)NNS(=O)(=O)c3ccc(F)c(F)c3F)cc2C1 (stereo not given)	1.9	-3.3%	-3.3	nt	nt	1.8	-7.8
Clc1cccc(CSc2nnc(-c3sccc3-n3cccc3)o2)c1	0.8	-1.5%	-1.1	nt	nt	-0.1	-5.3
COc1ccc(N2CCN(C3CCCCC3NS(=O)(=O)c3ccc(Cl)cc3)CC2)cc1 (stereo not given)	4.9	nt	?	7.8	-2.1	1.2	8.2
CC1CCN(C(=O)c2ccc(NS(=O)(=O)c3ccccc3)cc2)CC1	-0.2	nt	1.9	-6.8	5.2	2.5	10.6
O=C(Nc1ccc(S(=O)(=O)NCCc2ccccc2)cc1)c1ccco1	3.1	13.2%	1.3	4.6	-3.4	-5.0	-8.7
NC(=O)c1ccc(NC(=S)NCc2ccco2)cc1	2.9	-4.1%	-2.4	-3.0	-2.5	10.8	-1.7
C/C=C\C(=O)Nc1cccc(C2=NOC3(C2)C[C@@H](C(N)=O)N(C(=O)CC(c2ccccc2)c2ccccc2)C3)c1 (stereo not given in full)	3.9	-1.2%	3.0	-0.4	-1.3	5.3	-8.5
COC(=O)C1=C(N)Oc2cc(C)oc(=O)c2C1c1cccnc1 (stereo not given)	1.1	31.3%	1.4	-9.6	2.9	-2.2	-6.0
C=CCn1c(NC(=O)c2ccc(Br)o2)c(C(=O)OCC)sc1=S	-4.0	7.1%	6.7	8.4	-2.3	2.7	92.6*
O=C(CCC(=O)N1CCCC1)Nc1ccc([N+](=O)[O-])cc1	0.8	-5.3%	-4.1	-95.7	3.4	2.3	-17.4
CCCCCN(C(=O)CSc1n[nH]c(-c2ccc(C)cc2)n1)c1c(N)n(CCCC)c(=O)[nH]c1=O	0.3	0.6%	-1.9	-4.7	2.1	16.1	0.7
CC(C)CC(=O)NC1(C(F)(F)F)NC(=O)N(c2ccccc2)C1=O (stereo not given)	2.0	-10.6%	3.7	nt	-5.1	0.8	-5.0
C=CCN(c1ccccc1OC)S(=O)(=O)c1cccc(C(=O)OCC(=O)N2CCOCC2)c1	-2.6	nt	nt	nt	0.6	8.4	nt
O=C(Nc1ccc(CSc2ccccc2)cc1)c1ccc(CN2CCOCC2)cc1	-6.0	nt	0.9	-20.0	0.6	7.5	4.0
CN(C)c1nc2ccc(OCCN3CCCCC3)cc2s1	0.7	9.9%	0.4	0.6	-3.3	-0.5	-23.7
CCOC(=O)c1c(-n2cnnn2)sc(C)c1C	1.2	0.9%	-2.3	-5.1	2.3	-1.2	22.6
CCCn1c(=O)c(C(=O)NCc2ccccc2Cl)c(O)c2ccccc21	7.5	-3.5%	2.2	nt	0.4	-4.7	-4.8
COc1ccc(S(=O)(=O)N(C)CC(=O)NCc2cccnc2)cc1OC	0.3	1.4%	6.4	0.3	-4.9	2.8	-3.0
Cc1nn(Cc2ccc(Cl)cc2)c(C)c1NC(=O)CSc1n[nH]c(C)c1[N+](=O)[O-]	-2.5	-13.7%	-0.1	-4.8	-2.5	-3.9	0.0
Cc1ccc(OC(C)C(=O)Nc2ccc(C)c(S(=O)(=O)Nc3ccc(C)cc3C)c2)cc1 (stereo not given)	-0.4	6.8%	-5.3	nt	-1.3	2.9	3.9
COc1ccc2cc(C3OCCO3)c(Cl)nc2c1	1.4	nt	0.2	31.5	-0.6	1.6	40.1
O=C(Cn1cc(C(F)(F)F)cc(Cl)c1=O)Nc1cc(S(=O)(=O)N2CCOCC2)ccc1Cl	-1.5	4.5%	-0.7	0.9	0.7	8.6	-10.8
Brc1ccc(NC2=Nc3ccccc3CC2)cc1	0.1	16.7%	-0.4	nt	-2.9	7.2	-49.9
Cc1cc(-c2nnc(SCC(=O)Nc3nc(-c4ccccc4)cs3)o2)no1	0.7	-3.8%	-1.9	99.4*	-2.7	-0.1	-7.3
CC(C)CN(C(=O)CSc1nnc2c(Cl)cc(C(F)(F)F)cn12)C1CCS(=O)(=O)C1 (stereo not given)	-1.1	-9.9%	-2.8	nt	-5.6	-6.0	-5.9
Fc1ccc(COc2cccc(-c3n[nH]c(=S)o3)c2)cc1	1.6	?	-2.0	56.0	1.4	4.9	64.4
COc1ccc([N+](=O)[O-])cc1NCc1ccccc1	1.3	15.5%	6.3	?	-4.4	-0.1	0.4
O=C(Nc1nnc(-c2ccccc2Cl)o1)c1nc2ccccc2s1	-2.4	0.3%	2.6	nt	2.0	1.4	35.0
Cc1ccc(NC(=O)COC(=O)c2ccc([N+](=O)[O-])o2)cc1S(=O)(=O)N1CCCCC1	-1.5	-9.5%	2.6	-64.8	2.3	7.9	-55.9
Cc1cn(CCC(=O)Nc2ccc(N3CCOCC3)cc2)c2ccccc12	-0.7	4.4%	0.5	82.1*	0.3	-0.3	-5.4
COCCCNC(=O)c1c(N)n(/N=C/c2cccnc2)c2nc3ccccc3nc12	0.1	-4.0%	7.6	7.6	-3.3	0.2	-1.0
COC(=O)c1ccccc1NC(=O)N1CCN(c2ccc(F)cc2)CC1	-4.6	5.4%	3.0	20.1	6.0	2.3	20.7
COc1cc(-c2nnc(SC(C)C(=O)Nc3c(C)n(C)n(-c4ccccc4)c3=O)o2)cc(OC)c1OC (stereo not given)	2.3	1.9%	1.0	-5.7	-9.1	6.4	35.7
CC1(OC(=O)C2CCCC2)C(=O)C=C2C=C(c3ccsc3)N(c3ccccc3)C=C2C1=O (stereo not given)	-2.0	?	?	-23.6	8.2	13.2	8.4
COC(=O)C1=C(C(=O)OC)[C@@H]2N(Cc3ccccc3)c3ccccc3[C@@]23C[C@@H](C(=O)OC)N(C(=O)CC(C)C)C3=N1	0.5	nt	-0.7	1.3	1.2	-1.1	9.0
CCCCOc1ccc(C2C(C(=O)c3ccc(C)o3)=C(O)C(=O)N2Cc2ccco2)cc1 (stereo not given)	-3.9	nt	-0.7	8.7	0.3	-1.3	18.7
O=C(COC(=O)c1nc(Cl)ccc1Cl)c1ccccc1Cl	1.7	1.9%	nt	-24.0	1.3	-8.3	-6.5
Cc1ccc(OCc2cc(C(=O)NCc3cc(F)ccc3C)no2)cn1	5.0	-3.6%	-2.7	nt	nt	-11.0	-14.5
NC(=O)[C@@H]1CC2(CC(c3cccc(NC(=O)COc4ccc(Cl)cc4)c3)=NO2)CN1C(=O)c1ccccc1 (stereo not given in full)	1.0	-7.8%	-0.6	-1.1	4.4	-2.8	14.5
COC(=O)CC1C(=O)NCCN1C(=S)Nc1cccc(C)c1 (stereo not given)	2.7	nt	1.6	-8.8	-5.7	-5.8	-20.5
CSc1nc2ccccc2n1CC(=O)Nc1ccccc1	-1.7	13.8%	2.3	4.0	-0.9	-0.6	-4.1
Cc1ccc(-n2nc(-c3ccco3)cc2C(=O)O)cc1	-44.7	nt	?	-0.2	-3.3	-0.1	1.0
COCCn1c(=N)c(C(=O)NCCc2ccc(OC)cc2)cc2c(=O)n3cccc(C)c3nc21	-3.3	-0.4%	77.6*	-5.9	-0.4	27.1	9.9
O=C1CC(C(=O)N2CCCc3ccccc32)CN1c1ccc(F)cc1 (stereo not given)	-1.1	nt	1.2	nt	0.7	-0.4	3.5
O=C(Nc1ccc(Br)cc1)c1ccc2ncsc2c1	3.6	nt	-6.0	0.4	-1.5	3.2	-7.8
COc1ccc(OC)c(-c2csc(NC(=O)C3CSC4(C)CCC(=O)N34)n2)c1 (stereo not given)	2.2	0.2%	2.4	1.7	-3.9	9.3	-5.0
OCC[C@H]1C[C@@H](O)[C@H](O)[C@@]2(OCCc3ccccc32)O1	-1.5	nt	nt	-5.8	-2.2	-9.6	nt
COCCNC(=S)N/N=C(\C)c1ccc(OC(F)F)cc1	-2.6	-2.2%	-1.3	-0.2	-0.2	-3.4	-1.8
Cc1c(/C(Cc2ccccc2)=N/O)c2ccccc2n1C	3.5	-3.4%	-3.9	23.4	-1.9	-8.7	19.0
N#C/C(=C/C1=C(N2CCOCC2)C(=C/c2ccc(Cl)cc2)/CC1)C(=O)Nc1ccccc1F	26.8	-3.4%	nt	nt	nt	-139.0	nt
Following part
SMILES	HNF4A DNA FP	Vif TR-FRET	RanGTP-Imp inh	ALR inh	LANA-H2A inh	B2AR ag	Calb FLC
CCCSc1nc(N2CCOCC2)c2c(c1C#N)CCCC2	2.6	3.4%	1.6	-2.6	2.9	11.0	-2.9
O=C(CCCc1ccccc1)Nc1ccnn1C1CCN(Cc2ccccc2F)CC1	0.2	nt	2.6	0.8	-3.9	-8.1	-8.1
CC(C)c1cccc(OCC(=O)Nc2ccc(S(=O)(=O)Nc3ccccn3)cc2)c1	-4.7	nt	4.2	nt	-2.2	1.4	1.8
COc1cccc(-c2csc(/C(C#N)=C/Nc3cc4oc5ccccc5c4cc3OC)n2)c1	27.9	-9.2%	-1.5	-3.4	-1.0	-3.6	-6.2
CCCNC(=O)C1=C(C)C(=O)OC12CCC(C)CC2 (stereo not given)	-4.1	-6.8%	-6.5	-10.3	3.2	10.2	-3.7
CC(C)(C)c1ccc(S(=O)(=O)N2CCN(CC(=O)N3CC(=O)Nc4ccccc43)CC2)cc1	1.0	-9.7%	nt	-7.3	3.8	3.0	nt
O=C(Nc1ccc(Cl)cc1)C1CC2CCCC(C1)C2=O (stereo not given)	2.7	-5.4%	-6.5	-11.3	-1.8	-4.2	-16.1
COc1ccc(NC(=O)CSc2ccc(-c3sc(C)nc3C)nn2)cc1OC	2.3	1.6%	3.7	-9.9	1.3	4.8	-8.4
O=c1[nH]c(N2CCN(Cc3ccccc3)CC2)nc2c1CCC2	-1.2	1.1%	2.7	-0.1	4.3	-1.0	-17.1
CCOC(=O)O[C@]1(C(=O)COC(=O)CC)CC[C@H]2[C@@H]3CCC4=CC(=O)C=C[C@]4(C)[C@H]3[C@@H](O)C[C@@]21C	0.6	nt	nt	-9.1	-4.8	-0.3	nt

In another format: results already given
Every second line gives: HNF4A DNA FP	Vif TR-FRET	RanGTP-Imp inh	ALR inh	LANA-H2A inh	B2AR ag	Calb FLC
- O=C(CCCc1ccccc1)Nc1ccnn1C1CCN(Cc2ccccc2F)CC1
→ 0.2	nt	2.6	0.8	-3.9	-8.1	-8.1
- CC(C)c1cccc(OCC(=O)Nc2ccc(S(=O)(=O)Nc3ccccn3)cc2)c1
→ -4.7	nt	4.2	nt	-2.2	1.4	1.8
